Bioassay records: PubChem, ICCB-Longwood Screening Facility, Harvard Medical School
MenB inh: blocks the Mycobacterium tuberculosis MenB enzyme | P9WNP5 | AID 540299 | inhibition, %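 (about 12 µg/mL by stock and volumes)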 | actives 0.43% (n = 100,000) | MenB enzyme assay, absorbance read-out; some hits fall short of the stated cut;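 active means mean of two replicates above 30%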;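 further: 0% = no compound and 100% = wells with inactive enzyme; the first replicate is given; strong numbers were not always called active; inactives centre near -10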
Polio RdRp inh: inhibitors of poliovirus RNA polymerase binding and polymerization; % elongation, % (compound at 16.7 µg/mL); poliovirus polymerase elongation, fluorescence polarization; active compounds read low; actives 0.66% (n = 150,000); AID 588519; in the data active means % elongation below about 90%; further: some results filed as inactive read as strong as hits
Target sequence (P03300 1749-2209 limits assumed): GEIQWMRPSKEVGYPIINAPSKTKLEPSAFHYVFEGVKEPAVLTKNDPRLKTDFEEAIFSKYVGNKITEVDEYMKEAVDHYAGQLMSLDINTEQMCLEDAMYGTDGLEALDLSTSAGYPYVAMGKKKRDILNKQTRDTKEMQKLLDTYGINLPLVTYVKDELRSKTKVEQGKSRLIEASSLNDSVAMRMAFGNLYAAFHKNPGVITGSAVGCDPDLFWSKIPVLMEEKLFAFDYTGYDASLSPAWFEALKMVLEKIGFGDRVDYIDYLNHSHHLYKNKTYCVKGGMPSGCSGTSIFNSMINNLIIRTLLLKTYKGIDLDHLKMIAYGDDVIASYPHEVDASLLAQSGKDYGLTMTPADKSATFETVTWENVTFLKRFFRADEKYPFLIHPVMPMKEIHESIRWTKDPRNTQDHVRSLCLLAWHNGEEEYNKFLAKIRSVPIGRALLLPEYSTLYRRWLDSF
Mtb MbtI inh: blocks the Mycobacterium tuberculosis siderophore enzyme MbtI | AID 493033 | inhibition, %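 (about 17 µg/mL by stock and volumes)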 | P9WFX0 | actives 0.89% (n = 100,000) | purified MbtI enzyme, fluorescence intensity read-out;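 active means above 50% in both replicates, above 80% if mildly self-fluorescent; inactive means the rest, strongly fluorescent compounds included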;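 further: 0% = mean of negative and 100% = mean of positive controls; one replicate is shown; some compounds called inactive have numbers as strong as hits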
Target sequence (P9WFX0 whole entry, looked up): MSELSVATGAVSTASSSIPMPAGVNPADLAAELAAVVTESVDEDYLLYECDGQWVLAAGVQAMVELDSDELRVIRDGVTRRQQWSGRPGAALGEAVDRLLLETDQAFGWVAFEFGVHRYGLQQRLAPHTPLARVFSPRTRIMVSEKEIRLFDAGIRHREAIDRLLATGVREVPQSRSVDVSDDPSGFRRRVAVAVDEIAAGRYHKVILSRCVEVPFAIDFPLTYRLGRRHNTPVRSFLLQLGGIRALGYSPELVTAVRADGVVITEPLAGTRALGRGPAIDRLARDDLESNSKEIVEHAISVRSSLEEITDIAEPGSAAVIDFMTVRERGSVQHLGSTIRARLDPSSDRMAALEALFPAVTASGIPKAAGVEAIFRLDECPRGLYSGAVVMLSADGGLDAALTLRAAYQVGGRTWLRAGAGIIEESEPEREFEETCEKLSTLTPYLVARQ
Polio RdRp inh intensity: recorded beside Polio RdRp inh, whose call it bears; % elongation; measured here: total intensity read-out; formula for this scale not given here;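 total fluorescence in place of polarization; lower means less elongation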
* marks the source's active call; other numbers are inactive results; x = no result given; & = joins results of further samples.

Each structure is followed by: MenB inh | Polio RdRp inh | Polio RdRp inh intensity | Mtb MbtI inh
- C[C@@]12C(=O)OC(=O)[C@]1(C)C1CCC2O1
→ -4 | 99 | 100 | -8
- CCN(CC(=O)NC1CCS(=O)(=O)C1)c1nc(-c2cccnc2)nc2sc3c(c12)CCCC3 (stereo unspecified)
→ 2 | 103 | 110 | 61
- Cc1cc(C(=O)O)c(C)n1C1CC1
→ -3 | 104 | 108 | 5
- O=C(CSc1ccc(-c2ccco2)nn1)c1ccccc1
→ -16 | 99 | 107 | 53
- COc1cc(-c2nc(C=Nc3cccc(C(=O)O)c3)c(O)o2)cc(OC)c1OC
→ -183 | 99 | 102 | -48
- CCSc1nnc2ccc(-c3ccncc3)nn12
→ 2 | 97 | 105 | 11
- CCOC(=O)N1CCN(S(=O)(=O)c2ccc(C)c(C)c2)CC1
→ -16 | 103 | 104 | 6
- O=C(COc1ccc2ccccc2c1Br)NC1CCCCC1
→ -1 | 104 | 114 | x
- O=C(COC(=O)c1ccc(F)c(S(=O)(=O)N2CCCCC2)c1)NC1CC1
→ 6 | 98 | 95 | 3
- O=C1CSc2ccc(C(=O)OCCCn3c(=O)[nH]c4ccccc43)cc2N1
→ -26 | 99 | 108 | -9
- C=CCN1C(=O)C(=O)/C(=C(\O)c2ccccc2)C1c1ccccc1 (stereo unspecified)
→ 20 | 101 | 101 | 6
- O=C1CCC(=O)N1c1c(F)c(F)nc(N2CCCCC2)c1F
→ -25 | 104 | 108 | 179
- O=C(NCC1CCCCC1)NC1CCCN(c2cnccn2)C1 (stereo unspecified)
→ -17 | 103 | 100 | -11
- COc1ccc(CCNC(=O)c2ccc(/C=C3\Oc4ccccc4NC3=O)cc2)cc1OC
→ -5 | 103 | 105 | -102
- CC(Nc1nnnn1-c1ccccc1)c1ccccc1 (stereo unspecified)
→ -32 | 106 | 102 | -9
- CC(=C1C(=O)NC(=O)NC1=O)c1ccc(N)cc1
→ -78 | 98 | 101 | x
- CC(C)c1cccc(C(C)C)c1NC(=O)CSc1ncccn1
→ x | 102 | 96 | -1
- CNC(=S)NCc1ccc2c(c1)cc(C)n2C
→ -28 | 103 | 102 | 1
- O=C(NCC1CCCO1)C1CCN(c2nnc(-n3cccc3)s2)CC1 (stereo unspecified)
→ -22 | 103 | 103 | 8
- NS(=O)(=O)c1ccc(NC(=O)CN2CCCC2c2ccc3c(c2)OCCO3)cc1 (stereo unspecified)
→ 0 | 103 | 115 | 2
- c1ccc(CCNc2nnnn2-c2ccccc2)cc1
→ -2 | 101 | 108 | -22
- Cc1noc(C)c1CSc1nnc2ccccn12
→ -54 | 99 | 84 | -39
- Cc1nn(C)c(C)c1/C=C/C(=O)Nc1nc2c(s1)CCCC2
→ -9 | 105 | 102 | -6
- O=C(NCc1ccncc1)c1ccc(CSc2ncn[nH]2)cc1
→ 7 | 95 | 97 | 15
- CCc1ccccc1NC(=O)C=C(C)C
→ -28 | 101 | 98 | -4
- CC(C)(C)c1cc(C=C(C#N)C#N)cc(C(C)(C)C)c1O
→ -8 | 102&106 | 102&104 | 0
- NC(N)=N/N=C/c1ccccc1
→ -7&-1 | 100&100 | 96&101 | 17&-12
- CC1(C)Cc2cccc(OCC(=O)OCc3nnc(-c4ccccc4)o3)c2O1
→ -6 | 103 | 108 | -16
- C#CCOc1ccccc1C(N)=O
→ -21 | 101 | 99 | -5
- COc1ccc(NC(=O)c2cc3nc(C(F)F)cc(C(F)F)n3n2)cc1OC
→ -33 | 103 | 102 | -6
- COc1ccc(Cc2nnc(SCC3CC3)n2-c2ccc(F)cc2)cc1OC
→ 0 | 105 | 110 | -15
- CN1C(=O)CC(c2ccsc2)Sc2ccccc21 (stereo unspecified)
→ -13 | 107 | 104 | -13
- c1csc(-c2ncc3ccccn23)c1
→ 0 | 99 | 109 | -55
- Cc1ccc(S(=O)(=O)c2c(O)c3ccc(C(=O)N4CCOCC4)cc3[nH]c2=O)cc1
→ -11 | 103 | 99 | -4
- O=C(O)CNC(=O)c1ccc(S(=O)(=O)N2CCCC2)cc1
→ 8 | 100 | 102 | -17
- CCN1c2ccccc2-c2nc3ccccc3n2C1c1ccccc1 (stereo unspecified)
→ -29 | 104 | 106 | 113
- Cc1ccc2oc(=O)c3cc(C(=O)NCc4ccc(C)o4)sc3c2c1
→ -14 | 102 | 104 | 18
- Cc1ccc(C)c(N2CCN(CCCNC(=O)c3cn[nH]c3C3CCNCC3)CC2)c1
→ -19 | 103 | 101 | -7
- ClC(Cl)=Cn1nnnc1-c1ccccc1
→ x | 102 | 107 | -1
- COc1ccc(-c2nc(CN(C)Cc3cccs3)cs2)cc1OC
→ -10 | 104 | 103 | 94
- S=C(NCc1ccccc1)N1CCn2cccc2C1c1cccnc1 (stereo unspecified)
→ -15 | 101 | 101 | 19
- FC(F)Oc1ccc(N=C=S)cc1
→ -7 | 105 | 104 | 8
- O=C(O)C(C(=O)/C=C/c1ccccc1)=C1SCS1
→ -76 | 106 | 107 | 89*
- COCc1cc(C)nc2sc(C(O)c3ccccc3)c(NC(=O)c3ccco3)c12 (stereo unspecified)
→ -7 | 98 | 107 | x
- CC(C)C[N+]1(C)Cc2ccccc2C1
→ 6 | 101 | 103 | -16
- CSc1sc(-c2ccnc(SCC(=O)C(C)(C)C)n2)c2c1C(=O)CC(C)(C)C2
→ -22 | 109 | 115 | -7
- CCCC1(C(=O)OCC)NC(c2ccccc2F)C2C(=O)N(c3ccccc3)C(=O)C21 (stereo unspecified)
→ -37 | 103 | 103 | 1
- O=C(CN1CCC(O)(c2ccc(F)cc2)CC1)NCc1ccc(F)cc1
→ -1 | 103 | 103 | -18
- Cc1ccc(NCC(O)CSc2nc3c(cc2C#N)CCCC3)cc1 (stereo unspecified)
→ -36 | 99 | 100 | 7
- O=C(NC(Cc1ccccc1)C(=O)Nc1nnc(-c2ccco2)o1)OCc1ccccc1 (stereo unspecified)
→ -45 | 103 | 99 | -8
- O=C(C1CCCN(S(=O)(=O)c2cnc[nH]2)C1)N(CCc1ccccc1)Cc1ccccc1 (stereo unspecified)
→ -9 | 104 | 103 | -6
- CCN(c1ccccc1)S(=O)(=O)c1ccc(Cl)cc1
→ -53 | 102 | 101 | -11
- CCCn1c(=O)[nH][nH]c1=S
→ 3 | 100 | 99 | 88*
- O=C(CCc1nnc(SCC(=O)N2CCc3ccccc32)[nH]c1=O)OCC(=O)N1CCc2ccccc21
→ -5 | 99 | 100 | -7
- COc1ccc(N2CCN(Cc3nc4ccccc4[nH]3)CC2)cc1
→ 0 | 102 | 109 | -13
- COc1ccc(C(=O)c2oc3ccccc3c2NC(=O)C(C)(C)C)cc1
→ -30 | 103 | 109 | 11
- COc1ccc(OCCC(=O)N2CCN(c3ccccc3)CC2)cc1
→ -29 | 104 | 100 | -18
- Cc1c(C)n(Cc2ccc(Br)cc2)c(=O)n(Cc2ccc(Br)cc2)c1=O
→ -1 | 105 | 110 | -14
- CCn1c(=O)[nH]c(=O)c2cc(C(=O)c3cc(Cl)cc(Cl)c3O)cnc21
→ -14 | 110 | 112 | -9
- Brc1ccc2[nH]cc(C=Nc3ccc4c(c3)OCO4)c2c1
→ x | 98 | 107 | 5

Following part.
Letter code – A = MenB inh; B = Polio RdRp inh; C = Polio RdRp inh intensity; D = Mtb MbtI inh
O=C(c1cccnc1)N(Cc1ccccc1)C1(C(=O)Nc2ccccc2)CCCCC1
  A: x; B: 102; C: 104; D: -8
N=C1/C(=C2\NC(c3ccc(Br)cc3)=CS2)CC(=O)N1C1CC1
  A: -31; B: 113; C: 121; D: 91*
NC(=O)C1CCN(CC(O)COc2ccccc2F)CC1 (stereo unspecified)
  A: -15; B: 101; C: 108; D: -12
CCCc1cc(SCC(=O)OC)n2c(nc3ccccc32)c1C#N
  A: -27; B: 99; C: 102; D: 5
Cc1ccc(C)n1CCOC(=O)c1cccc(S(=O)(=O)NCc2ccccc2)c1
  A: -6; B: 99; C: 107; D: -9
CCN1CCN(C(=O)c2cc(Nc3ccc(C)c(C)c3)nc3ccccc23)CC1
  A: -21; B: 100; C: 101; D: -14
O=S(=O)(NCC1COc2ccccc2O1)c1ccc2c(c1)CCO2 (stereo unspecified)
  A: -23; B: 106; C: 104; D: 9
O=C(O)CSCCc1ccncc1
  A: 6; B: 102; C: 97; D: 13
C[N+]1(CC(O)CN2CCCC2=O)CCCCCC1 (stereo unspecified)
  A: -8; B: 107; C: 105; D: x
N#Cc1cccc(C(=O)Nc2ccccc2)c1
  A: -2; B: 103; C: 114; D: -5
CSc1nnc(C2CCCN2CC(=O)Nc2ccc(Oc3ccccc3)cc2)n1C (stereo unspecified)
  A: -54; B: 95; C: 112; D: 6
CC1=NCCN1S(=O)(=O)c1ccc(I)cc1
  A: -4; B: 106; C: 102; D: -4
Cn1c(-c2ccccc2)c(CCO)c2ccccc21
  A: -10; B: 104; C: 101; D: 90
O=C1CCc2cc(S(=O)(=O)NCC3CCCO3)cc3c2N1CC3 (stereo unspecified)
  A: 0; B: 101; C: 106; D: 3
CNC(=O)COc1c(C)cc(SC)cc1C
  A: 4; B: 101; C: 102; D: -12
Oc1c(CN2CCCCC2)ccc2cccnc12
  A: -22; B: 155; C: 184; D: -6
O=C(/C=C/c1ccc2c(c1)OCO2)N1CCN(S(=O)(=O)/C=C/c2ccccc2)CC1
  A: 0; B: 103; C: 102; D: -24
CCOc1ccc2oc(C(=O)OC3CCCC3=O)c(C)c2c1 (stereo unspecified)
  A: -10; B: 103; C: 106; D: 15
N#CCCN(Cc1cccnc1)C(=O)Nc1ccccc1
  A: -5; B: 100; C: 99; D: -2
Cc1ccc(S(=O)(=O)N2CCC3(CC2)OCCO3)cc1
  A: -1; B: 101; C: 103; D: -3
Cc1ccc(-n2nc(C)c3c(C)cc(C(=O)O)nc32)cc1C
  A: 4; B: 104; C: 103; D: -10
O=C1CC(c2nc3ccccc3[nH]2)CN1CCc1ccccc1 (stereo unspecified)
  A: -26; B: 102; C: 101; D: -65
CCC(CC)C(=O)NC1CCSC1=O (stereo unspecified)
  A: 17; B: 103; C: 104; D: -2
CCOC(=O)c1sc(=S)n(Cc2ccco2)c1C
  A: -22; B: 105; C: 104; D: -1
CCc1ccc2[nH]c(=O)c(C(c3nnnn3Cc3ccccc3)N(Cc3ccccc3)Cc3ccco3)cc2c1 (stereo unspecified)
  A: -24; B: 101; C: 101; D: 0
CCOC(=O)Cc1cc(=O)n2[nH]c(-c3ccccc3)cc2n1
  A: 0; B: 101; C: 103; D: 83
C=CCNc1nc(Nc2ccc(OC)cc2)nc(OC)n1
  A: -43; B: 106; C: 102; D: -8
Cc1sc2ncnc(N3CCOCC3)c2c1-c1ccc(F)cc1
  A: -15; B: 104; C: 106; D: -2
CC1=NN(c2ccc(C)c(C)c2)C(=O)/C1=C/c1ccc2c(c1)n(C)c(=O)n2C
  A: -11; B: 100; C: 106; D: -1
COc1ccc(-n2nnnc2SCSc2nnnn2-c2ccc(OC)cc2)cc1
  A: -25; B: 104; C: 101; D: -16
CC(NC(=O)C1CCCCN1S(=O)(=O)c1cccc2nsnc12)C12CC3CC(CC(C3)C1)C2 (stereo unspecified)
  A: -34; B: 101; C: 106; D: -7
CS(=O)(=O)N1CCC(C(=O)NC2CCCC2)CC1
  A: 8; B: 102; C: 108; D: 11

Not a retest: entries from further up.
Letter code – A = MenB inh; B = Polio RdRp inh; C = Polio RdRp inh intensity; D = Mtb MbtI inh
O=C(/C=C/c1ccc2c(c1)OCO2)N1CCN(S(=O)(=O)/C=C/c2ccccc2)CC1
  A: 0; B: 103; C: 102; D: -24
CCOc1ccc2oc(C(=O)OC3CCCC3=O)c(C)c2c1 (stereo unspecified)
  A: -10; B: 103; C: 106; D: 15
N#CCCN(Cc1cccnc1)C(=O)Nc1ccccc1
  A: -5; B: 100; C: 99; D: -2
Cc1ccc(S(=O)(=O)N2CCC3(CC2)OCCO3)cc1
  A: -1; B: 101; C: 103; D: -3
Cc1ccc(-n2nc(C)c3c(C)cc(C(=O)O)nc32)cc1C
  A: 4; B: 104; C: 103; D: -10
O=C1CC(c2nc3ccccc3[nH]2)CN1CCc1ccccc1 (stereo unspecified)
  A: -26; B: 102; C: 101; D: -65
CCC(CC)C(=O)NC1CCSC1=O (stereo unspecified)
  A: 17; B: 103; C: 104; D: -2
CCOC(=O)c1sc(=S)n(Cc2ccco2)c1C
  A: -22; B: 105; C: 104; D: -1
CCc1ccc2[nH]c(=O)c(C(c3nnnn3Cc3ccccc3)N(Cc3ccccc3)Cc3ccco3)cc2c1 (stereo unspecified)
  A: -24; B: 101; C: 101; D: 0
CCOC(=O)Cc1cc(=O)n2[nH]c(-c3ccccc3)cc2n1
  A: 0; B: 101; C: 103; D: 83
C=CCNc1nc(Nc2ccc(OC)cc2)nc(OC)n1
  A: -43; B: 106; C: 102; D: -8
Cc1sc2ncnc(N3CCOCC3)c2c1-c1ccc(F)cc1
  A: -15; B: 104; C: 106; D: -2
CC1=NN(c2ccc(C)c(C)c2)C(=O)/C1=C/c1ccc2c(c1)n(C)c(=O)n2C
  A: -11; B: 100; C: 106; D: -1
COc1ccc(-n2nnnc2SCSc2nnnn2-c2ccc(OC)cc2)cc1
  A: -25; B: 104; C: 101; D: -16
CC(NC(=O)C1CCCCN1S(=O)(=O)c1cccc2nsnc12)C12CC3CC(CC(C3)C1)C2 (stereo unspecified)
  A: -34; B: 101; C: 106; D: -7
CS(=O)(=O)N1CCC(C(=O)NC2CCCC2)CC1
  A: 8; B: 102; C: 108; D: 11
